Screening data as filed in PubChem.
2A StopGo – lowers the luciferase signal of an FMDV 2A StopGo reporter; human cells with a luciferase reporter of 2A StopGo recoding; control for the full effect not named in the record; actives 1.2% (n = 410,000); AID 1159524; Potency, µM (top dose mostly 57.9 µM), without a hit: at the top dose signal change, negative = less light; active = well fitted falling curve with a large enough effect; inconclusive = small, poorly fitted or top-dose-only effect; inactive = no such curve, though single readings can be large or run the other way; tested in HEK293T cells; further: nearly all actives have a fitted effect of over 45% in size; luciferase light after 4 h
RE007 growth inh – less growth of the S. pombe RE007 Vpr strain. S. pombe RE007 Vpr strain, BacTiter-Glo ATP luminescence, 24 h; control for the full effect not named in the record. Potency, µM (series often up to 92.2 µM), without a hit: at the highest dose activity change, negative = less growth. actives 0.21% (n = 360,000); active = well fitted falling curve with a large enough effect; inconclusive = small, poorly fitted or top-dose-only effect; inactive = no such curve, though single readings can be large or run the other way;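 further: nearly all actives have a fitted effect of over 50% in size; the assay follows cell death caused by Vpr and the record does not say whether a fall means rescue or toxicity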
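Fission yeast RE007 carrying one integrated HIV-1 vpr copy, seeded at OD 0.01 in PMG+AL medium with 23 nL pinned compound. Grown 24 h at 30 degrees; viability read by BacTiter-Glo luminescence after 5 min.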
Starred values were filed as active, the others as inactive; ? = inconclusive; & = joins results of further samples; [ ] = dose if it differs, or a comment. On the % scale 0 is the no-effect control and ±100 the full control effect; potency means the concentration at half of the fitted maximal effect.

structure,2A StopGo,RE007 growth inh
COc1ccc(-c2cc3nc(-c4ccccc4)cc(N4CCN(C(=O)c5ccoc5)CC4)n3n2)cc1,?,-21%
COC(=O)[C@]12CCCCC=C1N(Cc1cccc3ccccc13)C(=O)[C@H](CC(=O)NCC13CC4CC(CC(C4)C1)C3)C2,-14%,17%
CC[C@]12C(=O)N(C)C[C@H]([C@@H]3C(=O)N(Cc4ccccc4)C(=O)[C@@H]31)N2C(=O)c1ccc(Br)cc1,-9%,-8%
Cc1ccc(S(=O)(=O)N2C[C@H]3C(=O)C[C@@H]4C(=O)N(c5ccccc5)C(=O)[C@@H]4[C@@H]3C[C@H]2c2cccc(Cl)c2)cc1,-19%,3%
O=C(Oc1ccccc1)c1ccccc1C(=O)Oc1ccccc1,-22%,-18%
CC(=O)Oc1cccc(C2=CC(=O)CC(C)(C)C2=O)c1,0%,-3%
Cc1ncc(CO)c(CO)c1OCC(O)CN1CCN(c2ccc(F)cc2)CC1 (stereo not drawn),-24%,4%[18.4 µM]
COc1ccccc1CCc1nnc(CCC(=O)NCCC2CCCCO2)o1 (stereo not drawn),4%,-15%
Cc1cc2nc(-c3ccc(C#N)cc3)c(Cc3cccc(F)c3)n2c(C)c1Br,-16%,0%
C=CCC[C@@H](CCCCC)OC(=O)/C=C/[C@@H](O)[C@H](O)C[C@H](O)CC=C,-24%,4%
CCOc1ccccc1NC(=O)C1C(c2ccccc2)C1(Cl)Cl (stereo not drawn),-27%,0%
CCCCCC(=O)N1C[C@@H](O)[C@H](n2cc(C3CC3)nn2)C[C@@H]1c1ccc(Cl)cc1,0%,0%
Cc1cccc(-c2cnc(C(O)c3cc(C)cc(C)c3)[nH]2)c1 (stereo not drawn),24%,-10%[18.4 µM]
CC(C)Cc1ccc(-c2cc3nc(NCc4cccc(Cl)c4)ccn3n2)cc1,28%,-6%[18.4 µM]
C#CCNC(=O)C1=C[C@H](C)C[C@H](OCc2ccc(CO)cc2)O1,25%,-7%
CCCCN1CC(=O)N2[C@@H]3c4cc(OC)ccc4OC[C@@H]3[C@H](C(=O)OCC)[C@]2(C)C1=O,-12%,-12%
Cc1cc2nc(-c3ccc(Cl)cc3)c(CC3CCCCC3)n2c(C)c1Br,-5%,-4%
COc1ccc(NC(=O)C(c2ccc(C#N)cc2)n2c(=O)c(-c3ccco3)nc3ccccc32)cc1 (stereo not drawn),-5%,7%
CCCc1c(O)nc(SC2CC(=O)N(c3ccc(C)c(Cl)c3)C2=O)[nH]c1=O (stereo not drawn),-19%,?
OC[C@@H]1CN(Cc2ccncc2)C[C@H](n2cnc3c(NC4CC4)ncnc32)O1,-15%,-9%
CC1CCCC(C)N1CCCNC(=O)C1CCCN(S(=O)(=O)N2CCCCC2)C1 (stereo not drawn),0%,-9%
O=S(=O)(Nc1ccc2c3c(cccc13)CC2)c1ccccc1,56%[activator],-4%
CCOC(=O)[C@]12Cc3cc(C)ccc3[C@H]1N(Cc1ccccc1)C(=O)c1cc(F)c(F)cc12,11µM*,2%
COc1ccc(C#Cc2cnc3c(c2)C(=O)N([C@@H](C)CO)C[C@@H](C)[C@@H](CN(C)CC2CCOCC2)O3)cc1,-21%,3%
COc1ccc(-c2csc(C(O)c3cccc(OC)c3)n2)cc1 (stereo not drawn),-13%,-10%
O=C(OCc1ccccc1)C1CCN(S(=O)(=O)c2cccs2)CC1,-20%,3%
O=[N+]([O-])c1ccc(Sc2ccc(F)cc2)nc1,-26%,-6%
C[C@@H]1COc2cccc(N3CCN(C)CC3)c2S(=O)(=O)N1,-15%,5%
COc1ccc(-n2c(=S)[nH]c3ccc(C)cc3c2=O)cc1,-26%,3%
COc1cc(CNC(=O)C2CC(O)CN2C(=O)Nc2ccccc2)cc(OC)c1OC (stereo not drawn),-21%,-8%
O=C(NCC(F)(F)F)[C@H]1O[C@@H](n2ccc(=O)[nH]c2=O)[C@H](O)[C@@H]1O,-11%,8%
O=C(NCc1ccccc1)c1[nH]c(C(F)(F)F)nc1-c1ccccc1,-12%,84%
CC1(C(=O)NCc2ccc(F)c(F)c2)Cc2c(-c3ccc4c(c3)OCO4)ccnc2O1 (stereo not drawn),-6%,0%
CN(C(=O)c1cccc(NC(=O)Cc2ccc(NC(=O)C3CCN(C(=O)CCc4ccccc4)CC3)cc2)c1)C1CC1,-14%,11%
C=CCNc1ncnc2c1ncn2[C@H]1CN(Cc2cc(OC)c(OC)c(OC)c2)C[C@@H](CO)O1,-22%,6%
O=C(COc1ccc(Br)cc1)N(Cc1nnc(-c2ccccc2Cl)o1)C1CC1,19%,-4%
COC(=O)Cn1c2ccccc2c(=O)n1C(C)CBr (stereo not drawn),-12%,3%
COc1ccc(-c2csc(NC(C)c3nc4cc(C(F)(F)F)ccc4n3CCOCCO)n2)cc1 (stereo not drawn),?,-15%
C[C@@H]1CN([C@@H](C)CO)C(=O)CCCn2cc(nn2)CO[C@H]1CN(C)S(=O)(=O)c1ccc(-c2ccccc2)cc1,-6%,6%
C[C@@H](NC(=O)[C@@H]1CCCN1C(=O)[C@@H]1CCCN1C(=O)c1cccc2ccccc12)c1ccccc1,-18%,11%
O=[N+]([O-])c1cc(C(F)(F)F)ccc1NCCc1ccccn1,34%[activator],-26%
CN(C)/C=C1\C(=O)Oc2ccccc2C1=O,-24%,-11%
COc1ccc(C(O)c2ncc(-c3ccccc3C)[nH]2)cc1F (stereo not drawn),34%[activator],-15%[18.4 µM]
O=C1NC(Cc2ccc(O)cc2)c2nc3cc(F)ccc3c(=O)n2-c2ncccc21 (stereo not drawn),-23%,-10%
CCOC(=O)C1=C(C)N=c2sc(=Cc3cc(Cl)c(OCC(=O)O)c(OC)c3)c(=O)n2C1c1ccccc1Cl (stereo not drawn),?,21%
CCOC(=O)C1=CN(Cc2ccccc2)CCC1=O,-10%,-7%
CCCC(=O)N1CCC1(C)C(=O)Nc1cc(OC)ccc1OC (stereo not drawn),-14%,13%
COCCNC(=O)c1cccc2c(-c3ccnn3C)coc12,-17%,-22%[18.4 µM]
CCCCc1c(-c2cccc(F)c2)ncn1CCc1ccccc1OC,25µM*,-14%
CCOCCC(=O)Nc1ccc2c(c1)c(=O)n(C)n2Cc1cccc(C(F)(F)F)c1,0%,5%
CC(C)N1CCC(C)(C(=O)Nc2ccccc2Oc2ccccc2)C1 (stereo not drawn),-9%,9%[18.4 µM]
COC(=O)C1=C(c2cccc(OC)c2OC)C[C@@H]2CC[C@H]1N2C(=O)NCc1ccc(C(F)(F)F)cc1,-20%,3%
CC[C@@H](NC(=O)Cn1cc(C)c(=O)[nH]c1=O)c1ccccc1,-17%,10%
Cc1noc(C)c1S(=O)(=O)NC(=O)C1(C)CCN1C(=O)c1ccc(C2CCCCC2)cc1 (stereo not drawn),-4%,6%
Cc1c(C(=O)NCCC#N)sc(=O)n1Cc1ccc(C(=O)N(C)C)cc1,-13%,-14%[18.4 µM]
C[C@]1(O)CC(=O)C=C[C@H]1Nc1ccccc1,25µM*,7%
COc1ccc(C(C(=O)NC2CCCC2)n2c(Cc3cc(F)cc(F)c3)nc3ccccc32)cc1 (stereo not drawn),-3%,-6%
C[C@H](CO)N1C[C@H](C)[C@H](CN(C)C(=O)c2ccccn2)Oc2ncc(Br)cc2C1=O,-28%,-7%
Cc1ccc(Cn2c(C(CO)Nc3nc(-c4ccc(F)cc4)cs3)nc3ccccc32)cc1 (stereo not drawn),-1%,-4%
CCCCCCNC(=O)OC12CN(C(=O)OC(C)C)N(C(=O)OC(C)C)CC1(O)CN(S(=O)(=O)c1ccc(C)cc1)C2 (stereo not drawn),?,3%

Exported with values under each structure: 12 of the compounds above
Results follow in this order: 2A StopGo | RE007 growth inh
> O=[N+]([O-])c1cc(C(F)(F)F)ccc1NCCc1ccccn1
 : 34%[activator] | -26%
> CN(C)/C=C1\C(=O)Oc2ccccc2C1=O
 : -24% | -11%
> COc1ccc(C(O)c2ncc(-c3ccccc3C)[nH]2)cc1F (stereo not drawn)
 : 34%[activator] | -15%[18.4 µM]
> O=C1NC(Cc2ccc(O)cc2)c2nc3cc(F)ccc3c(=O)n2-c2ncccc21 (stereo not drawn)
 : -23% | -10%
> CCOC(=O)C1=C(C)N=c2sc(=Cc3cc(Cl)c(OCC(=O)O)c(OC)c3)c(=O)n2C1c1ccccc1Cl (stereo not drawn)
 : ? | 21%
> CCOC(=O)C1=CN(Cc2ccccc2)CCC1=O
 : -10% | -7%
> CCCC(=O)N1CCC1(C)C(=O)Nc1cc(OC)ccc1OC (stereo not drawn)
 : -14% | 13%
> COCCNC(=O)c1cccc2c(-c3ccnn3C)coc12
 : -17% | -22%[18.4 µM]
> CCCCc1c(-c2cccc(F)c2)ncn1CCc1ccccc1OC
 : 25µM* | -14%
> CCOCCC(=O)Nc1ccc2c(c1)c(=O)n(C)n2Cc1cccc(C(F)(F)F)c1
 : 0% | 5%
> CC(C)N1CCC(C)(C(=O)Nc2ccccc2Oc2ccccc2)C1 (stereo not drawn)
 : -9% | 9%[18.4 µM]
> COC(=O)C1=C(c2cccc(OC)c2OC)C[C@@H]2CC[C@H]1N2C(=O)NCc1ccc(C(F)(F)F)cc1
 : -20% | 3%

Back to the main list, starting 2 compounds before the break.
structure,2A StopGo,RE007 growth inh
Cc1ccc(Cn2c(C(CO)Nc3nc(-c4ccc(F)cc4)cs3)nc3ccccc32)cc1 (stereo not drawn),-1%,-4%
CCCCCCNC(=O)OC12CN(C(=O)OC(C)C)N(C(=O)OC(C)C)CC1(O)CN(S(=O)(=O)c1ccc(C)cc1)C2 (stereo not drawn),?,3%
O=S1(=O)C[C@@H](N2CCN(CCO)CC2)[C@H](COCc2ccccc2)N1,0%,-6%
CCc1nc2ccc(C(=O)N(CC)CCN(C)C)cn2c1N(CC)CCOC,-16%,-4%[18.4 µM]
CCCCN1C(=O)C(CC(=O)NC2CCCCC2)CC(C(=O)N(CC)CC)=C1C (stereo not drawn),-16%,-3%
O=C1NCN(c2ccccc2)C12CCN(C(c1nnnn1C1CCCC1)C1CC1)CC2 (stereo not drawn),-16%,7%
O=C(Cc1cccc(NC(=O)C2CCCN(C(=O)c3ccccc3)C2)c1)Nc1ccc(C(=O)N2CCOCC2)cc1 (stereo not drawn),-2%,8%
CCC(c1nnnn1-c1ccc2c(c1)OCCO2)N1CCN(c2ncccc2C(F)(F)F)CC1 (stereo not drawn),-19%&0%,7%&4%
CCOC(=O)C(CCSC)Nc1nc(Cl)nc(Nc2ccc(Cl)cc2)n1 (stereo not drawn),-7%,1%
COc1ccc(Cl)cc1NC(=O)CN(C)C(=O)c1cn(-c2ccccc2)nc1-c1cccs1,?,-18%
CSc1cccc(CNC(=O)C2CCC(=O)N(CCc3ccccc3)C2)c1 (stereo not drawn),57%[activator],-4%
CN[C@@H](CO)C(=O)NC[C@H]1O[C@@H](n2cnc3c(=O)[nH]c(N)nc32)[C@H](O)[C@@H]1O,-19%,14%
O=C(NCc1ccccc1)C(c1ccco1)N1CCN(C(=O)C2CCCO2)CC1 (stereo not drawn),-20%,13%
CCCCN1C(=O)C(CC(=O)NCCN2CCOCC2)CC(C(=O)N(C)C)=C1C (stereo not drawn),-2%,?
Cc1cc(Br)cn2c(Cc3ccccc3)c(C3CCCCC3)nc12,0%,?
COCCn1c(-c2ccc(C)cc2)nc2c(c(=O)c3ccccc3n2C)c1=O,-8%,-3%
CC(=O)NC1CC2CCCC(C1)N2C(=O)Nc1cccc(C(C)=O)c1 (stereo not drawn),3%,8%
O=C1CN(C(=O)COC(=O)c2cc(Cl)ccc2[N+](=O)[O-])c2ccccc2N1,-20%,6%
CC(=O)n1cc(C2CC(=O)OC3=C2CC(=O)C(C)(C)C3)c2ccccc21 (stereo not drawn),0%,10%
C[C@@H]1CN([C@H](C)CO)C(=O)CCCn2nncc2CO[C@H]1CN(C)Cc1cccc2c1OCCCO2,-17%,-2%
O=C(NCCN1CCC(n2c(=O)[nH]c3ccccc32)CC1)c1ccc(F)cc1Cl,-30%,-20%
NC(COCc1ccccc1)c1csc(Nc2ccc(S(N)(=O)=O)cc2)n1 (stereo not drawn),-9%,-4%[18.4 µM]
Cc1ccc(S(=O)(=O)N2C[C@H]3C(=O)C[C@@H](c4cccc(Cl)c4)N(S(=O)(=O)c4ccc(C)cc4)[C@H]3C[C@H]2c2cccc(Cl)c2)cc1,-15%,7%
C#Cc1ccc(NC(=O)C2(C)CCN2C(=O)Cc2ccc(C(C)(C)C)cc2)cc1 (stereo not drawn),?,4%
COc1ccc(CN2CCC(C)(Oc3ccc4c(c3)OCO4)C2)c2ccccc12 (stereo not drawn),-16%,-16%[18.4 µM]
CC(C)COC(=O)N1CCCCC1c1cc(C(=O)Nc2ccccc2)no1 (stereo not drawn),10%,-1%
N#Cc1ccc(-c2nc3ccc(Cl)cn3c2Cc2ccccc2)cc1,4%,-18%

An excerpt (hit frequency here may not be typical).
